Rce1 inh: yeast Rce1p protease inhibitors, primary screen, biochemical, fluorescence, cell-free homogeneous; CAAX prenyl protease 2 (Saccharomyces cerevisiae (strain ATCC 204508 / S288c)), Q03530; calls only; yeast membranes, quenched prenylated peptide cleavage fluorescence; 0.27% of 290,000 active;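 active means fall in fluorescence gain of 50% or more versus controls, with final raw signal at or below 3038400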;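 further: plate controls were neutral control wells for no effect and wells lacking membranes for full effect; tested at 10 µM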
UUG fidelity: modulators of yeast start codon fidelity, primary screen, whole organism, S. cerevisiae, single point, plate reader; S. cerevisiae UUG-firefly luciferase reporter, luminescence/redox ratio; activity score, % at 18.7 µM; 0.13% of 350,000 active; AID 602363, 2012;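 active means replicate mean at a twofold rise or more, about +100% in these data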;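 further: firefly luciferase made from a UUG start codon reports start codon fidelity; reporter light over untreated wells divided by growth signal over untreated wells; some hits fall short of that in this replicate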
PABP FP inh: PABP poly(A) RNA binding inhibitors, primary screen, biochemical, fluorescence polarization, uHTS; Polyadenylate-binding protein 1 (Homo sapiens), P11940; inhibition, % at 35 µM; 1% of 290,000 active;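 active means 50% or more with normal probe brightness, or confirmed in later tests; about a fifth of its hits are not listed in these tables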;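 further: calls also rest on retests at 20 µM and on dose response follow-up; controls were probe without protein and protein plus probe with vehicle; some compounds called inactive have numbers as strong as hits; many hits fall short of the cut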
Target sequence (P11940 whole entry, looked up): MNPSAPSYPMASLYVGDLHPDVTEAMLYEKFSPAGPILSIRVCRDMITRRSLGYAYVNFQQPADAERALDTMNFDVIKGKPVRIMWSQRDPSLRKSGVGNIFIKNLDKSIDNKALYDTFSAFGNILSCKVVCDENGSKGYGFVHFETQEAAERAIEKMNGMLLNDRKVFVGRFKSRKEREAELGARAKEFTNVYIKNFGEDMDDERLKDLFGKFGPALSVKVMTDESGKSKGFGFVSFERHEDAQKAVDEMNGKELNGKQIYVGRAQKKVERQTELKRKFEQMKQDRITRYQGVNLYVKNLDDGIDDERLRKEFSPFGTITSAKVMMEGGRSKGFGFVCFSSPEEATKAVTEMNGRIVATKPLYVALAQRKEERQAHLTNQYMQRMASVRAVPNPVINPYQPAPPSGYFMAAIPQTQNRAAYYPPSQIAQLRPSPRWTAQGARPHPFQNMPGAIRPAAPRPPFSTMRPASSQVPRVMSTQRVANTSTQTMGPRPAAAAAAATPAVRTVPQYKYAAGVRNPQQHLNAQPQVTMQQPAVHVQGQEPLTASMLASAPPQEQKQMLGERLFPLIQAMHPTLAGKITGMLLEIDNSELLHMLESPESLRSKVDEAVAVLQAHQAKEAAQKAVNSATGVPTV
CSC inhib: cancer stem cell viability inhibitors, primary screen, luminescence; cancer stem cell-like cells viability; 1.1% of 300,000 active; AID 2717, 2010; inhibition, % at 7.5 µM;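 active means mean at 75% or more and at least half the replicates too; tested in HMLE shEcad cells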;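 further: 0% = median of negative and 100% = median of positive control wells; the first replicate is given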
HIV Env fusion: inhibitors of HIV-1 Env-driven cell-cell fusion, primary screen, HeLa-JRFL effector, CEM21 target cells, luciferase; inhibition, % at 12.3 µM; 1.1% of 360,000 active; AID 651610, 2012;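 active means mean replicate inhibition score of at least 50 and every replicate individually at or above 50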;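 further: 0% = plate neutral controls and 100% = maraviroc near 300 nM; one replicate is shown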
MT1-MMP act inh: blockers of MT1-MMP proenzyme processing, primary screen, HT1080 RFP-PRO-GFP cells, GFP/RFP fluorescence; Matrix metalloproteinase-14 (Homo sapiens), P50281; GFP/RFP ratio fluorescence, overnight; percent of plate control window, DMSO zero; GFP/RFP ratio change, % at 20 µM; 0.061% of 360,000 active; AID 651647, 2012;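 active means GFP/RFP ratio change of at least 30% with cell ATP level not reduced by more than half and red fluorescence within 50% of control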; further: strong numbers were not always called active
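Assay system: HT1080 RFP-PRO-GFP cells | Dosing: 20 µM single dose, 1% DMSO | Incubation: Cells overnight before dosing, compound overnight, 37 °C, 5% CO2 | Evaluation: GFP/RFP fluorescence ratio | Control set: DMSO-only wells and HT1080 RFP-L50D-GFP cell wells as references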
eIF4H FP inh: human eIF4H binding inhibitors, primary screen, translation initiation inhibitor project, biochemical, uHTS, fluorescence polarization. Eukaryotic translation initiation factor 4H (Homo sapiens), Q15056. eIF4H fluorescence polarization binding assay. inhibition, % at 35 µM. 0.94% of 290,000 active;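 active means 50% or more with normal probe brightness, or confirmed in later tests; about a fifth of its hits are not listed in these tables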;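 further: calls also rest on retests at 20 µM and on dose response follow-up; 0% = protein and probe with vehicle and 100% = probe without protein; strong numbers were not always called active; many hits fall short of the cut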
MT1-MMP act inh RFP: recorded beside MT1-MMP act inh, whose call it bears; RFP signal change, %; measured here: RFP expression control read;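 0 = vehicle wells; hits needed this value within 50% of zero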
Starred values were filed as active, the others as inactive.

How did COc1ccc(N2CCN(C(=O)c3cn(Cc4ccccc4)nc3-c3cccnc3)CC2)cc1 do in these assays?
UUG fidelity: -16; CSC inhib: -13; HIV Env fusion: 18; MT1-MMP act inh: 6; MT1-MMP act inh RFP: -1

What do the screens show for `COC(=O)c1c(C(=O)OC)c(-c2ccc(F)cc2)n2c1CS(=O)(=O)C2`?
Rce1 inh: inactive; PABP FP inh: -9; CSC inhib: -14; HIV Env fusion: 27; MT1-MMP act inh: -3; eIF4H FP inh: -8; MT1-MMP act inh RFP: 0

Results for CC(C)C(OC(=O)c1nsc(Cl)c1Cl)C(=O)NC1CCCCC1 (configuration not stated) ?
UUG fidelity: -5; PABP FP inh: -4; CSC inhib: -18; HIV Env fusion: -4; MT1-MMP act inh: 1; eIF4H FP inh: -4; MT1-MMP act inh RFP: -1

How did CCOC(=O)c1[nH]c2ccc(OC)cc2c1NC(=S)N1CCN(c2ccc(F)cc2)CC1 do in these assays?
Rce1 inh: inactive; PABP FP inh: -10; CSC inhib: -5; HIV Env fusion: -34; MT1-MMP act inh: 4; eIF4H FP inh: 4; MT1-MMP act inh RFP: -2

What do the screens show for `COc1ccc(Oc2c(OC)cc([N+](=O)[O-])c3ncccc23)cc1`?
UUG fidelity: 16; HIV Env fusion: -23; MT1-MMP act inh: 7; MT1-MMP act inh RFP: -7

Results for COc1cccc(C(=O)Cn2c(N3CCOCC3)nc3c2c(=O)n(C)c(=O)n3C)c1 ?
Rce1 inh: inactive; UUG fidelity: -2; PABP FP inh: 1; HIV Env fusion: 8; MT1-MMP act inh: 1; eIF4H FP inh: 0; MT1-MMP act inh RFP: -2

Results for COc1cccc(-c2cc(C(=O)NC3CCCC3)c3ccccc3n2)c1 ?
Rce1 inh: inactive; UUG fidelity: 21; CSC inhib: -3; HIV Env fusion: 9; MT1-MMP act inh: 2; MT1-MMP act inh RFP: 0

Results for CCOCCc1nnc(NC(=O)C2CCN(C(=O)c3ccco3)CC2)s1 ?
Rce1 inh: inactive; UUG fidelity: -4; PABP FP inh: -9; CSC inhib: -25; HIV Env fusion: 1; MT1-MMP act inh: 1; eIF4H FP inh: 3; MT1-MMP act inh RFP: 4

What do the screens show for `COc1ccc(N(CC(=O)NCC2CCCO2)C(=O)CCC(=O)Nc2nccs2)c(OC)c1` (configuration not stated)?
Rce1 inh: inactive; UUG fidelity: -9; PABP FP inh: 1; HIV Env fusion: 3; MT1-MMP act inh: 1; eIF4H FP inh: -7; MT1-MMP act inh RFP: 0

How did O=C(O)c1cccc2c1C(=O)c1cccc3snc-2c13 do in these assays?
Rce1 inh: inactive; UUG fidelity: -3; PABP FP inh: 34; CSC inhib: -5; HIV Env fusion: -16; MT1-MMP act inh: 4; eIF4H FP inh: 26; MT1-MMP act inh RFP: 4

How did O=C1CCNc2cc3ccccc3cc21 do in these assays?
Rce1 inh: inactive; UUG fidelity: -14; PABP FP inh: 75*; CSC inhib: 23; MT1-MMP act inh: 14; eIF4H FP inh: 82*; MT1-MMP act inh RFP: 18

How did CN1C(=O)C(C)(C)c2cc(S(=O)(=O)N3CCC(C(=O)NCc4ccccc4Cl)CC3)ccc21 do in these assays?
Rce1 inh: inactive; UUG fidelity: -3; PABP FP inh: -6; CSC inhib: 8; HIV Env fusion: -5; MT1-MMP act inh: -1; eIF4H FP inh: -9; MT1-MMP act inh RFP: 0

What do the screens show for `CCn1c(-c2ccco2)nc2ccccc21`?
Rce1 inh: inactive; UUG fidelity: -26; PABP FP inh: 4; CSC inhib: -6; HIV Env fusion: -72; MT1-MMP act inh: -11; eIF4H FP inh: 7; MT1-MMP act inh RFP: -5

How did Cc1cccc(N2CCN(C(=O)CSc3ccsc3[N+](=O)[O-])CC2C)c1 (configuration not stated) do in these assays?
Rce1 inh: inactive; PABP FP inh: 10; CSC inhib: 13; MT1-MMP act inh: 6; eIF4H FP inh: 19; MT1-MMP act inh RFP: -7

What do the screens show for `NCCCCC(=O)O`?
UUG fidelity: -15; CSC inhib: -11; HIV Env fusion: 2; MT1-MMP act inh: -3; MT1-MMP act inh RFP: 2

What do the screens show for `O=C(N/N=C/c1c[nH]c2ccccc12)C1COc2ccccc2O1` (configuration not stated)?
Rce1 inh: inactive; UUG fidelity: 1; PABP FP inh: -10; CSC inhib: 53; HIV Env fusion: 22; MT1-MMP act inh: -6; eIF4H FP inh: -10; MT1-MMP act inh RFP: -11

How did Cc1nc2ccccn2c1C(=O)N/N=C/c1ccc2c(c1)OCO2 do in these assays?
Rce1 inh: inactive; UUG fidelity: -17; PABP FP inh: 20; CSC inhib: -6; HIV Env fusion: -14; MT1-MMP act inh: 3; eIF4H FP inh: -2; MT1-MMP act inh RFP: 6

Results for Clc1cccc(OCc2nnc(-c3ccccc3Br)o2)c1 ?
Rce1 inh: inactive; UUG fidelity: -13; PABP FP inh: -1; CSC inhib: 15; HIV Env fusion: -9; MT1-MMP act inh: 2; eIF4H FP inh: -9; MT1-MMP act inh RFP: 0

Results for Cc1ccc(Cn2c(SCC(=O)N/N=C/c3ccccc3OCC(=O)O)nc3ccccc32)cc1 ?
Rce1 inh: inactive; UUG fidelity: -16; PABP FP inh: 4; HIV Env fusion: 19; MT1-MMP act inh: 7; eIF4H FP inh: 11; MT1-MMP act inh RFP: -8

Results for CCCCOCCCNC(=O)c1ccc2c(c1)OCO2 ?
Rce1 inh: inactive; UUG fidelity: -16; PABP FP inh: -10; CSC inhib: -10; HIV Env fusion: -77; MT1-MMP act inh: 1; eIF4H FP inh: -2; MT1-MMP act inh RFP: 2

What do the screens show for `COc1cccc(CN2CCNC(=O)C2CC(=O)N(C)C2CCCCC2)c1OC` (configuration not stated)?
Rce1 inh: inactive; UUG fidelity: -12; PABP FP inh: 1; CSC inhib: -10; HIV Env fusion: -11; MT1-MMP act inh: -3; eIF4H FP inh: -1; MT1-MMP act inh RFP: 0

How did CC(OC(=O)CCOc1ccccc1)C(=O)Nc1ccc(Cl)cn1 (configuration not stated) do in these assays?
UUG fidelity: -7; PABP FP inh: -10; CSC inhib: -12; HIV Env fusion: -2; MT1-MMP act inh: -5; eIF4H FP inh: 14; MT1-MMP act inh RFP: -4

How did C#CCOCCOCCOCCNc1nc(N2CCN(C(=O)[C@H](Cc3cc4ccccc4[nH]3)n3cc([C@@H](N)C(C)CC)nn3)CC2)nc(N2CCN(C(=O)[C@H](Cc3cc4ccccc4[nH]3)n3cc([C@@H](N)CC(C)C)nn3)CC2)n1 (some centres not stated) do in these assays?
Rce1 inh: inactive; PABP FP inh: 8; CSC inhib: 9; eIF4H FP inh: 1

Results for CCOC(=O)[C@H]1[C@H]2COc3cc(OC)ccc3[C@@H]2N2C(=O)N(c3cccc(F)c3)C(=O)[C@@]12C ?
UUG fidelity: -15; CSC inhib: -6; HIV Env fusion: -2; MT1-MMP act inh: -1; MT1-MMP act inh RFP: -9

Results for CCCc1c(O)nc(SCCN(CCC)CCC)[nH]c1=O ?
Rce1 inh: inactive; UUG fidelity: -21; PABP FP inh: 24; CSC inhib: -10; HIV Env fusion: -1; MT1-MMP act inh: 2; eIF4H FP inh: 3; MT1-MMP act inh RFP: 4

Results for CCCCC(=O)Nc1ccc(NC(=O)c2ccco2)cn1 ?
Rce1 inh: inactive; UUG fidelity: -23; PABP FP inh: 2; CSC inhib: -12; HIV Env fusion: -11; MT1-MMP act inh: -4; eIF4H FP inh: -2; MT1-MMP act inh RFP: 3

What do the screens show for `CCOC(=O)c1cnn(-c2cccc(Cl)c2)c1N`?
UUG fidelity: -12; PABP FP inh: 3; CSC inhib: -8; HIV Env fusion: -39; MT1-MMP act inh: 2; eIF4H FP inh: 5; MT1-MMP act inh RFP: 0

How did Cc1cc(NC(=O)c2ccccc2F)on1 do in these assays?
Rce1 inh: inactive; UUG fidelity: -16; PABP FP inh: -2; CSC inhib: 8; HIV Env fusion: -10; MT1-MMP act inh: 4; eIF4H FP inh: -6; MT1-MMP act inh RFP: 6

What do the screens show for `CSc1ncc(Cl)c(C(=O)Nc2cc(C)ccc2C)n1`?
Rce1 inh: inactive; UUG fidelity: -8; PABP FP inh: 10; CSC inhib: 4; HIV Env fusion: 3; MT1-MMP act inh: -4; eIF4H FP inh: -8; MT1-MMP act inh RFP: -5

How did CCC(Sc1nc2cc3c(cc2c(=O)n1Cc1ccco1)OCO3)C(=O)Nc1ccccc1OC (configuration not stated) do in these assays?
Rce1 inh: inactive; UUG fidelity: -7; PABP FP inh: -4; CSC inhib: 4; HIV Env fusion: -56; MT1-MMP act inh: 4; eIF4H FP inh: -2; MT1-MMP act inh RFP: -3

How did Cc1cc(C)c(NC(=O)Cn2cnc3c(oc4ccccc43)c2=O)c(C)c1 do in these assays?
Rce1 inh: inactive; PABP FP inh: -5; CSC inhib: -22; HIV Env fusion: -2; MT1-MMP act inh: 3; eIF4H FP inh: -6; MT1-MMP act inh RFP: -1

What do the screens show for `CN(C(=O)COC(=O)c1ccc2c(c1)OCCO2)c1ccccc1`?
Rce1 inh: inactive; PABP FP inh: -4; CSC inhib: 5; HIV Env fusion: 11; MT1-MMP act inh: 2; eIF4H FP inh: -10; MT1-MMP act inh RFP: 4

Results for COc1cccc(NC(=O)COC(=O)Cc2ccc(Cl)cc2)c1 ?
Rce1 inh: inactive; UUG fidelity: 3; PABP FP inh: 6; CSC inhib: -16; HIV Env fusion: -2; MT1-MMP act inh: 4; eIF4H FP inh: -3; MT1-MMP act inh RFP: 7

What do the screens show for `CC(=O)c1c(NCc2ccccc2)nc(=O)n(-c2ccccc2)c1C`?
Rce1 inh: inactive; UUG fidelity: -8; PABP FP inh: 5; CSC inhib: -6; HIV Env fusion: -74; MT1-MMP act inh: 2; eIF4H FP inh: -4; MT1-MMP act inh RFP: -2

What do the screens show for `CN(C)S(=O)(=O)c1ccc(NC(=O)CSc2nnc(-c3ccco3)n2N)cc1`?
UUG fidelity: -19; CSC inhib: -9; HIV Env fusion: 23; MT1-MMP act inh: -4; MT1-MMP act inh RFP: 1

What do the screens show for `Brc1ccc(-c2csc(N/N=C/c3cccnc3)n2)cc1`?
Rce1 inh: inactive; PABP FP inh: 3; CSC inhib: 0; HIV Env fusion: 13; MT1-MMP act inh: -5; eIF4H FP inh: -6; MT1-MMP act inh RFP: -16

Results for Cc1nc(SCC(=O)Nc2cc(C)on2)c2c(=O)n(C)c(=O)n(C)c2n1 ?
Rce1 inh: inactive; UUG fidelity: -2; PABP FP inh: 7; CSC inhib: -7; HIV Env fusion: -1; MT1-MMP act inh: 1; eIF4H FP inh: 2; MT1-MMP act inh RFP: 2

How did CC[C@@H]1C=C(C(=O)O)[C@H](c2ccc(Cl)c(Cl)c2)N1S(=O)(=O)c1ccc(C)cc1 do in these assays?
UUG fidelity: -3; HIV Env fusion: -1; MT1-MMP act inh: 2; MT1-MMP act inh RFP: 0

How did CC(C)C(NC(=O)OCc1ccccc1)C(=O)OCC(=O)NCc1ccco1 (configuration not stated) do in these assays?
Rce1 inh: inactive; UUG fidelity: -1; PABP FP inh: 3; CSC inhib: -3; MT1-MMP act inh: 1; eIF4H FP inh: 13; MT1-MMP act inh RFP: 4

Quoted from the entries so far (two entries):
What do the screens show for `CC(=O)c1c(NCc2ccccc2)nc(=O)n(-c2ccccc2)c1C`?
Rce1 inh: inactive; UUG fidelity: -8; PABP FP inh: 5; CSC inhib: -6; HIV Env fusion: -74; MT1-MMP act inh: 2; eIF4H FP inh: -4; MT1-MMP act inh RFP: -2

What do the screens show for `CN(C)S(=O)(=O)c1ccc(NC(=O)CSc2nnc(-c3ccco3)n2N)cc1`?
UUG fidelity: -19; CSC inhib: -9; HIV Env fusion: 23; MT1-MMP act inh: -4; MT1-MMP act inh RFP: 1

No enrichment for hits (roughly 2.9% active in at least one column).
